Source: PubChem (National Center for Advancing Translational Sciences (NCATS))
FLuc inh – firefly luciferase inhibition; actives 2.2% (n = 72,000); Potency, µM (series often up to 57.1 µM), without a hit: at the highest dose activity change, negative = inhibition, usual class: inhibitors; P08659; purified firefly luciferase, luminescence, 8 min; further: potency means the concentration at half of the fitted maximal effect; on the % scale 0 is the no-effect control and ±100 the full control effect; nearly all actives have a fitted effect of over 40% in size
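Compounds were tested as concentration series (qHTS) against purified P. pyralis luciferase with luciferin and 10 uM ATP in 50 mM imidazole pH 7.2, 50 mM KCl, 7 mM MgCl2, 0.01% Tween 20, 0.05% BSA. Luminescence was read after 8 min at ambient temperature.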
ERK AVP block – vasopressin-driven ERK pathway inhibition; Potency, µM (highest dose often 57.5 µM), without a hit: at the highest dose activity, negative = inhibition, actives largely listed as inhibitors; HEK293-V1b, vasopressin-stimulated pERK AlphaScreen; actives 0.99% (n = 72,000); further: potency means the concentration at half of the fitted maximal effect; on the % scale 0 is the no-effect control and ±100 the full control effect; nearly all actives have a fitted effect of over 55% in size
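Phosphorylated ERK1/2 detected via AlphaScreen bead proximity in lysates of V1b-expressing HEK293 cells given 25 nM vasopressin for 5 min after 30 min compound exposure (37 °C). AC50 from Hill equation; basal DMSO 0%, vasopressin 100%.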
Tau filament bind – tau filament binding. Potency, µM (titrated, usually from 57.1 µM), for inactives: at the highest dose activity change, negative = inhibition. AID 596. P10636. recombinant tau filaments, thioflavin S fluorescence, 15 h; filaments grown with octadecylsulfate alongside compound. actives 2% (n = 71,000);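 further: potency means the concentration at half of the fitted maximal effect; on the % scale 0 is the no-effect control and ±100 the full control effect; actives lower thioflavin S fluorescence by blocking filaments or displacing dye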
Target sequence (P10636 whole entry, looked up): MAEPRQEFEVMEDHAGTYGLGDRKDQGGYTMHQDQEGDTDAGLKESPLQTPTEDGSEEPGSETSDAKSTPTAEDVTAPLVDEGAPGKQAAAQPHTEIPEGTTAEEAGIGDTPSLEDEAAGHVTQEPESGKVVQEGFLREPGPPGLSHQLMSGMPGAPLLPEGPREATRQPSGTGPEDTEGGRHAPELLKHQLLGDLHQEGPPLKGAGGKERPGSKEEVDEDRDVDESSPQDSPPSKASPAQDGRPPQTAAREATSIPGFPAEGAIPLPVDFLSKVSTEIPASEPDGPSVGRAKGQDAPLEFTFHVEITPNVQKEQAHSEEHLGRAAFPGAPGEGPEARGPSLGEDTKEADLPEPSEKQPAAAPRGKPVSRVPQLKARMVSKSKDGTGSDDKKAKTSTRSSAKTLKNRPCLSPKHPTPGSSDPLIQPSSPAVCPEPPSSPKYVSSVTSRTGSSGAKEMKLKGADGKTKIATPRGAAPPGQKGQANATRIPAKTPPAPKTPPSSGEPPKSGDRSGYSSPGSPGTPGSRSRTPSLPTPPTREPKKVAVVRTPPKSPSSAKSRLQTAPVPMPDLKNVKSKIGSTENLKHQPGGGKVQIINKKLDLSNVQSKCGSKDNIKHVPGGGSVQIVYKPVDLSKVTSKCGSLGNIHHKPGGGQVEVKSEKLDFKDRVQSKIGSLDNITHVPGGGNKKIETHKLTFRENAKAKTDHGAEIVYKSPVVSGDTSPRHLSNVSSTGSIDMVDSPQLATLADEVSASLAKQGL
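Recombinant tau protein (human, 1 uM final) plus 30 uM ODS in HEPES pH 7.4 with NaCl, DTT and thioflavine S. Compound present from the start; fluorescence at 510 nm after 15 h, 37 C.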
USP2a inhib – inhibitors of human ubiquitin-specific protease USP2a; O75604; USP2a enzymatic assay, qHTS inhibition; Potency, µM (series often up to 38.3 µM), without a hit: top-dose activity change, negative = inhibition, hits mostly inhibitors; actives 0.1% (n = 60,000); AID 927;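 further: potency means the concentration at half of the fitted maximal effect; nearly all actives have a fitted effect of over 60% in size; plate controls were DMSO for no effect and NEM full inhibition control for full effect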
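Coupled readout: USP2-cleaved Ub-PLA2 (20nM final) turns over NBD C6-HPC (20uM final), Ex 460nm/Em 535nm after 2.5 h, time-zero read flagging artifacts. Enzyme (20nM final, pH 8.0 Tris) given 30 min RT with compound first; NEM defines full inhibition.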
Caspase-1 inhib – allosteric or competitive inhibitors of human caspase-1; P29466; Caspase-1 enzyme, Ac-WEHD-AFC fluorogenic rate; Potency, µM (titrated, usually from 57.5 µM), inactives show top-dose activity change, negative = inhibition, hits mostly inhibitors; actives 0.03% (n = 75,000); AID 900;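 further: potency means the concentration at half of the fitted maximal effect; plate controls were vehicle for no effect and no substrate for full effect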
Target sequence (P29466 120-297 limits assumed): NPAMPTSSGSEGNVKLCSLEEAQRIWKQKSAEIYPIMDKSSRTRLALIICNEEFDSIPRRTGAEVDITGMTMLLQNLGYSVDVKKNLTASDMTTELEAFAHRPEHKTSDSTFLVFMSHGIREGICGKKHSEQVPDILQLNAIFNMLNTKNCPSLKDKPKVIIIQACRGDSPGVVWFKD
Target sequence (P29466 317-404 limits assumed): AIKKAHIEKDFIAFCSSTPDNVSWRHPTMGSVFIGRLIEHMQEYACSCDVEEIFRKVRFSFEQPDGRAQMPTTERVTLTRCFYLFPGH
Casp7 inh – allosteric or competitive inhibitors of human caspase-7 | recombinant caspase-7, Ac-DEVD-AFC fluorescence rate | Potency, µM (top dose mostly 57.5 µM), inactives show at the top dose activity change, negative = inhibition, hits mostly inhibitors | actives 0.02% (n = 75,000); active means well fitted inhibition curve with a large enough effect in the main read-out, with a control signal flat, not every such curve was filed as active; inconclusive means small, poorly fitted or top-dose-only effect, or a change in a side signal; further: potency means the concentration at half of the fitted maximal effect; % of control where 0% means no effect
Rhodamine fluor – compound autofluorescence in rhodamine spectral region; Rhodamine-region fluorescence, 547/598 nm, Tris buffer; stronger effect = higher value; AID 594; actives 0.05% (n = 59,000); max dye-equivalent concentration, M; in the data active means max dye-equivalent concentration above about 11 nM; inconclusive means between about 1.1 nM and that limit
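Steps: pin-transfer compounds into pH 8.0 Tris (100 mM), hold 15 min at room temperature, image with a 547/598 nm filter pair, and convert intensities to rhodamine-equivalent concentration using a six-point on-plate rhodamine series.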
Fluorescein autfl – compound autofluorescence in fluorescein spectral region; Compound autofluorescence, 480/540 nm, fluorescein-equivalent; stronger effect = higher value; max fluorescein-equivalent concentration, M; actives 0.91% (n = 59,000); AID 593; in the data active means max fluorescein-equivalent concentration above about 10 nM; inconclusive means between about 1.1 nM and that limit
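First, buffer (100 mM Tris, pH 8.0) dispensed; second, compounds and fluorescein standards pinned in; third, 15 min room-temperature incubation; finally, imaging at ex 480 nm/em 540 nm. Fluorescence normalized against the six-point fluorescein curve.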
Texas Red fluor – compounds fluorescent in Texas Red spectral region; max dye-equivalent concentration, M; actives 0.06% (n = 59,000); AID 587; Compound fluorescence, Texas Red channel, 547/618 nm; stronger effect = higher value; in the data active means max dye-equivalent concentration above about 10 nM; inconclusive means between about 1.1 nM and that limit
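Spectral interference profiling: each compound concentration's relative fluorescence, read with a 547 nm excitation and 618 nm emission filter pair, was normalized to a per-plate Texas Red standard curve.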
HEK293 cAMP ctrl – raises cAMP in parental HEK293 cells, TSHR agonist counter-screen; parental HEK293 CNG cAMP sensor, membrane potential fluorescence; Potency, µM (highest dose often 57.1 µM), without a hit: top-dose activation, actives largely listed as activators; actives 2.5% (n = 73,000); AID 938; further: potency means the concentration at half of the fitted maximal effect; % of control where 0% means no effect; nearly all actives have a fitted effect of over 55% in size
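Parental HEK 293 cells stably expressing a cAMP-gated CNG channel were loaded with membrane potential dye containing 100 uM RO 20-1724 for 60 min. Compound added for 30 min; depolarization read as fluorescence intensity at 590 nm.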
Active calls of the source: *; i = inactive; ? = inconclusive; · = no result given; [ ] = another dose, or the depositor's remark. Unless noted, the call rests on the fitted dose curve; in most records, active means well fitted curve in the direction sought with a large enough effect; inconclusive means small, poorly fitted or top-dose-only effect, or another doubt; inactive means no such curve, though single readings can be large; an effect the other way counts as inactive or inconclusive. The list is partial; count on the stated rates, not on these rows.

SMILES	FLuc inh	ERK AVP block	Tau filament bind	USP2a inhib	Caspase-1 inhib	Casp7 inh	Rhodamine fluor	Fluorescein autfl	Texas Red fluor	HEK293 cAMP ctrl
Cc1c(N=C2NC(=O)C(CC(=O)Nc3ccccc3)S2)c(=O)n(-c2ccccc2)n1C (configuration not stated)	3%	-25%	2%	22%	-1%	-5%	i	?	i	1%
COC(=O)CCC(=O)Nc1sc(C)c(C)c1C(N)=O	-2%	-7%	2%	-2%	0%	3%	i	i	?	37%
COc1ccc(NC(=O)CCN2CCCCCC2)c(OC)c1	1%	4%	-14%	-1%	-1%	0%	i	i	i	?
O=C(NC1(C(F)(F)F)Oc2ccccc2O1)N1CCCC1	3%	11%	3%	-4%	0%	2%	i	i	i	-3%
COC(=O)c1[nH]c2ccc(F)cc2c1NC(=O)CCN1CCN(C(=O)c2ccco2)CC1	2%	-1%	1%	15%	2%	-1%	i	i	i	-1%
Cc1cc(NC(=O)CN2CCCCC2C)nc2c1c(=O)oc1ccccc12 (configuration not stated)	1%	·	-13%	·	1%	-2%	·	·	·	2%
CS(=O)(=O)Nc1ccc2c3c(cccc13)CC2	2%	-4%	-10%	6%	1%	-1%	·	·	·	4%
Cn1cccc1C(=S)N1CCOCC1	-2%	-17%	5%	5%	-1%	0%	i	?	i	0%
CN(C)CCN(c1ccccn1)c1ccccn1	2%[11.4 µM]	5%[11.5 µM]	6%[11.4 µM]	·	1%[11.5 µM]	-2%[11.5 µM]	i	i	i	-2%[11.4 µM]
C=CCNC(=O)N[C@@H](CCSC)C(=O)OC	9%	-3%	9%	3%	0%	0%	i	i	i	5%
Cc1cc(C(=O)NCCCn2ccnc2)cs1	2%	12%	-2%	-5%	3%	-2%	i	?	i	-1%
Cc1c(C(=O)Nc2ccncc2)sc2nc(-c3ccc(F)cc3)cn12	-2%	·	448%	·	-4%	-6%	·	·	·	14%
CC(C)C1C(C#N)=C(N)SC(N)=C1C#N	-5%	?	18%[11.4 µM]	2%[7.66 µM]	-1%	-2%	·	·	·	1%[11.4 µM]
COc1ccccc1-c1nnc2n1N=C(C)CS2	-4%	-6%	-3%	-1%	-1%	0%	i	i	i	0%
CC1CCN(C(=S)c2ccccc2O)CC1	-3%	19%	6%	7%	-3%	0%	i	i	i	1%
COc1cccc(NC(=O)CN2C(=O)COc3ccc(Cl)cc32)c1	-2%	·	-9%	·	-3%	2%	·	·	·	12%
Cc1ccsc1C1C2=C(CC(C)(C)CC2=O)Nc2ncnn21 (configuration not stated)	2%	-6%	-17%	·	0%	-2%	·	·	·	29%
N#Cc1c(NC(=O)CSc2nc(-c3ccco3)cc(C(F)(F)F)n2)sc2c1CCCC2	0%	3%	46%	41%[activator]	0%	1%	i	i	i	1%
CC(=O)c1ccc(OCCCC(=O)n2nnc3ccccc32)cc1	2%	-2%	-2%	-5%	-1%	-1%	i	?	i	10%
CC1(C)CC(=O)C2(CC3=C(CC(C)(C)CC3=O)O2)C(=O)C1	2%	-8%	4%	2%	-2%	1%	·	·	·	1%
COC(=O)COc1cccc(NC(=O)COc2ccccc2)c1	-2%	20%	18%	1%	-1%	0%	·	·	·	7%
Cc1ccc(-n2c(=O)cc(N3CCc4ccccc4C3)[nH]c2=O)cc1	-1%	3%	11%	-3%	0%	-1%	i	i	?	-2%
CCOC(=O)c1sc(=S)n(-c2ccc(F)c(F)c2)c1N	2%	-27%	1%	5%	1%	1%	i	i	i	15%
CC(=O)C1=C(C)Nc2ncnn2C1c1cccc(OCc2ccccc2)c1 (configuration not stated)	4%	11%	64%	·	-4%	0%	·	·	·	4%
O=C1CCCC2=C1C(c1ccco1)Nc1ccc(C(=O)c3ccccc3)cc1N2 (configuration not stated)	1%	?	6.3µM*	7%	-15%	-24%	·	·	·	-3%
Cc1cnc(NC(=O)CSc2nnc(-c3ccc(Cl)cc3Cl)n2N)s1	-5%	-13%	4%	13%	-1%	-1%	i	i	i	16%
O=C1C2ON(c3ccccc3)C(c3ccccn3)C2C(=O)N1c1ccc(Br)cc1 (configuration not stated)	1%	-14%	2%	8%	1%	-2%	·	·	·	?
O=C(Cc1ccccc1)N1CCN(C(=O)c2cccs2)CC1	0%	-14%	4%	-7%	-1%	0%	i	i	i	3%
Cn1cc(CNC(=O)Nc2ccc3c(c2)OCO3)cn1	-4%	-21%	8%	-2%	0%	1%	i	i	i	6%
Cc1c(OCc2nn[nH]n2)ccc2c3c(c(=O)oc12)CCC(C)C3 (configuration not stated)	-4%	-11%	18%	26%	-4%	-2%	i	i	i	9%
CCCC(=O)Nc1ccc(C(=O)NCCCn2ccnc2)cc1	0%	5%	5%	-4%	-1%	4%	i	?	?	5%
O=C(NCCc1ccccc1)C1CC(c2ccccc2O)=NO1 (configuration not stated)	0%	-5%	-15%	-7%	-1%	-2%	i	?	i	10%
COc1ccccc1C(=O)Nc1ccc2c(c1)OCCO2	16µM*	-4%	-8%	1%	0%	1%	i	i	i	?
COCCSc1ccccc1C(=O)NCC1CCCO1 (configuration not stated)	0%	-6%	2%	0%	3%	-1%	i	?	i	-1%
COc1ccc(C(=O)NCCc2c[nH]c3ccccc23)cc1S(=O)(=O)N1CCOCC1	0%	-6%	-8%	17%	-1%	0%	i	i	?	-7%
CCOc1ccccc1OCc1nn2c(COc3ccccc3)nnc2s1	0%	6%	21%	12%	-4%	-3%	i	?	?	16µM*
COc1nc(N(c2ccccc2)c2ccccc2)nc(-n2ccnc2)n1	5%	?	36%	5%	-2%	-1%	i	i	i	?
COCCNC(=O)c1sc2nc(-c3ccccc3)cn2c1C	-14%	5%	8%	4%	-1%	2%	i	i	i	9%
CC(Sc1ccc2nnc(-c3ccc(F)cc3)n2n1)C(=O)O (configuration not stated)	1%	·	9%	·	-2%	1%	·	·	·	6%
Cc1cc(NC(=O)CSc2c(C)[nH]c3ccccc23)no1	2%	·	-1%	·	-5%	-2%	·	·	·	15%
CCNc1ncc2ncc(=O)n(Cc3cccc(OC)c3)c2n1	0%[11.4 µM]	-29%	2%	62%[activator]	-16%	-19%	i	i	i	?
Oc1c(C(c2cccs2)N2CCC3(CC2)OCCO3)sc2ncnn12 (configuration not stated)	-2%	·	-1%	·	1%	-2%	·	·	·	15%
CN(C)C(=O)c1ccc(-c2cncnc2NCc2cccs2)cc1	1%[2.29 µM]	-10%	0%	-13%	0%	2%	i	i	i	-1%
COc1cccc(C2NC(=O)NC(C)=C2C(=O)Nc2cccc(C)c2C)c1 (configuration not stated)	1%	-7%	61%	-4%	3%	-1%	i	?	?	-2%
c1cncc(CNc2cc(-c3ccc4c(c3)OCO4)ncn2)c1	-2%[2.29 µM]	-7%	-5%	-5%	-3%	0%	i	i	i	22%
Cc1ccc(C2C3=C(CCCC3=O)Nc3[nH]c(=S)[nH]c(=O)c32)cc1 (configuration not stated)	-6%	17%	6%	5%	-4%	-1%	i	?	i	11%
CCc1c(C)sc(NC(=O)OC)c1C(=O)N1CCCCC1	2%	-6%	-23%	8%	-4%	-6%	i	?	?	?
COCCNC(=S)c1ccc(OC)cc1	-1%	-24%	-3%	-5%	1%	-4%	i	i	i	4%
Cc1ccc(-c2nnc(-c3ccc(NC(=O)c4ccco4)cc3)o2)cc1	1%	-8%	37%	24%	-1%	0%	i	i	i	10%
O=C1CC(NCc2ccco2)C(=O)N1CCc1ccccc1 (configuration not stated)	0%	-5%	-2%	4%	-1%	-2%	i	i	?	4%
More records
SMILES	FLuc inh	ERK AVP block	Tau filament bind	USP2a inhib	Caspase-1 inhib	Casp7 inh	Rhodamine fluor	Fluorescein autfl	Texas Red fluor	HEK293 cAMP ctrl
CCC(=O)Nc1cccc(NC(=O)COc2ccc(OC)cc2)c1	20µM*	1%	19%	-1%	0%	0%	i	i	?	1%
Cc1c(C(=O)NCC(C)C)sc2nc(-c3ccc(F)cc3)cn12	-2%	·	8%	·	-1%	2%	·	·	·	27%
COc1ccc(C)cc1NC(=O)c1ccc(S(=O)(=O)N2CCOCC2)cc1	1%	-5%	4%	15%	1%	-5%	i	?	i	-1%
N#Cc1c(N)c(C#N)c(-c2ccc3c(c2)OCO3)c2c1CCCC2	-9%	-2%	111%[11.4 µM]	3%[7.66 µM]	-9%	-7%	·	·	·	25%[11.4 µM]
Cc1noc(NS(=O)(=O)c2ccc(NC(=O)CSc3nc4ccccc4s3)cc2)c1C	-1%	?	5%	20%	0%	-2%	i	i	i	6%
COc1ccc(NC(=O)CCc2ccccc2)cc1NC(=O)c1ccco1	5%	1%	1%	13%	-11%	-3%	i	i	i	?
COCCCN1C(=O)c2[nH]nc(-c3ccccc3O)c2C1c1cccc(Cl)c1 (configuration not stated)	6%	-4%	20%	36%[activator]	-3%	-2%	i	i	i	22%
CCOC(=O)c1c(-n2cnnn2)sc(C)c1C	-1%	-19%	0%	1%	-1%	0%	i	i	i	20%
CCCSC1=C(C#N)C(c2ccccc2OCC)CC(=O)N1 (configuration not stated)	2%	-30%	-2%	·	-2%	4%	i	i	i	2%
Cc1cc(SCC(=O)N2CCC(c3noc4ccc(F)cc34)CC2)nc2ccccc12	1%	-3%	0%	18%	-1%	-8%	i	?	i	30%
